Rango-impB inh: inhibitors of Rango-importin beta complex formation; AID 540263; Rango CFP/YFP FRET sensor + importin beta, 45 min; Q14974; actives 0.031% (n = 340,000); Potency, µM (titrated, usually from 92.2 µM), without a hit: at the top dose inhibition of complex formation; active = rising FRET ratio curve, often small or poorly fitted; inconclusive = mostly compound fluorescence or quenching in the first reads; inactive = flat curves in all reads;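 further: potency means the concentration at half of the fitted maximal effect; 0% = DMSO wells and 100% = buffer wells lacking importin beta; nearly all actives have a fitted effect of over 15% in size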
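FRET biosensor Rango (snurportin 1 IBB between N-terminal EYFP and C-terminal Cerulean), 50 nM in PBS/1 mM DTT/0.02% Tween-20/0.1% BSA, preincubated 5 min RT with compound; 0.125 microM importin beta added, 45 min RT, CFP/YFP FRET ratio read.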
Rango release inh: inhibitors of RanGTP-induced Rango-importin beta complex dissociation; O95149+P62826; Biochemical FRET Rango-importin beta, RanGTP-induced dissociation; Potency, µM (top dose mostly 46.1 µM), for the others: at the top dose activity change, negative = inhibition; actives 0.071% (n = 340,000); AID 540253; active means falling FRET ratio curve, often poorly fitted, with flat reads before Ran was added; inconclusive means other falling curves, or compound fluorescence or quenching; inactive means flat or rising ratio curve;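 further: potency means the concentration at half of the fitted maximal effect; % of control where 0% means no effect; nearly all actives have a fitted effect of over 45% in size; -100% = wells without RanGTP and RCC1; the record marks most hits as doubtful in a second field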
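Rango (0.1 uM)–importin beta (0.25 uM) complex; RanGTP-RCC1 trigger; 45 min RT; CFP/YFP FRET read.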
miR-21 reporter: miR-21 reporter, rising signal. HeLa miR-21 FLuc reporter, luciferase, 48 h. Potency, µM (top dose mostly 38.3 µM), for the others: top-dose reporter change, positive = more light. 340,000 tested, under 10 active. AID 2288; active = well fitted rising curve with a large enough effect; inconclusive = small, poorly fitted or top-dose-only effect; inactive = no such curve, though single readings can be large or run the other way;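 further: % of control where 0% means no effect; miR-21 action dims this reporter so a rising signal means less miR-21 action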
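HeLa miR-21-FLuc reporter line, endogenous miR-21; 2000 cells/well in DMEM/10% FBS; compound titration up to ~40uM final, 48 h, 37 degree Celsius; luciferase detection reagent, 15 min lysis, CCD luminescence.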
GLA inh pH 4.5: alpha-galactosidase A (human) inhibition, pH 4.5; P06280; AID 1467; 230,000 tested, under 10 active; purified enzyme, 4-MU-alpha-Gal fluorescence, pH 4.5; activity change, negative = inhibition, % at 105 µM; inconclusive = small, poorly fitted or top-dose-only inhibition, or a rising curve; inactive = flat fitted curve, though single readings scatter; no compound was filed as active;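 further: 0% = full activity with enzyme and -100% = basal without enzyme; dose as in the result columns while the protocol names 77 µM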
Target sequence (P06280 whole entry, looked up): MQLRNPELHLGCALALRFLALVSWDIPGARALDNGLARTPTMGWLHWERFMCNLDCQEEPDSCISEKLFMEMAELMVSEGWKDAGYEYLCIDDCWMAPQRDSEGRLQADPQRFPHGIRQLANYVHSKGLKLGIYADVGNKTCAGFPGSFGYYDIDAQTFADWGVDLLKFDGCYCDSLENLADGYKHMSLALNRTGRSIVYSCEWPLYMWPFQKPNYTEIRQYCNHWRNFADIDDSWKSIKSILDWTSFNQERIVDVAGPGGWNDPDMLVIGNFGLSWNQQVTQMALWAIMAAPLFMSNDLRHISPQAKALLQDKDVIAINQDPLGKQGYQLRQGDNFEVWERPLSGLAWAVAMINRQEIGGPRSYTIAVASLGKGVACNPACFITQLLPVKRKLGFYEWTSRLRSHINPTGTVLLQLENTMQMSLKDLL
* marks the source's active call; other numbers are inactive results; ? = inconclusive; . = no result given; & = joins results of further samples. Only part of the results is shown (hit frequency here may not be typical).

SMILES	Rango-impB inh	Rango release inh	miR-21 reporter	GLA inh pH 4.5
Fc1ccc(Br)cc1C1C=C(c2ccc(Br)cc2)Nc2ncnn21 (stereo not drawn)	?	?	-2%	7
CN(C)CCCNS(=O)(=O)c1ccc(NC2CCCCCC2)c([N+](=O)[O-])c1	0.1%	-8%	15%	.
COc1ccccc1OCC(=O)N1CC2(C)CC1CC(C)(C)C2 (stereo not drawn)	-0.9%	2%	-5%	6
O=C(CN(Cc1ccc(F)cc1)C(=O)CCC(=O)Nc1ccccn1)NCc1ccc(F)cc1	-5.0%	0%	6%	.
COc1cc(/C=C/C(C)=NNc2ccccc2)ccc1O	?	-18%	.	.
CCN(CC)CCn1c(OC)cc(=O)[nH]c1=O	-4.9%	16%	2%	1
COc1ccccc1C(CNC(=O)c1ccc(S(=O)(=O)NCc2ccco2)cc1)N(C)C (stereo not drawn)	-4.6%	-8%	-13%	2
COc1ccccc1NC(=O)Cn1c(C)nc2c(sc(=S)n2Cc2ccco2)c1=O	-1.7%	-12%	-1%	.
COc1ccccc1CNC(=O)Cc1ccc(OC)c(OC)c1	-0.9%	?	-5%	.
N[C@H]1CONC1=O	7.2%	31%	.	-2
O=C(COC(=O)c1ccc(NS(=O)(=O)c2cccs2)cc1)Nc1nc2c(F)c(F)c(F)cc2s1	?	-19%	-14%	2
CC(C)C(=O)Nc1ccc(NC(=O)c2cccs2)cn1	1.7%	-4%	-42%	5
O=C(NC1CCN(Cc2ccccc2Cl)CC1)c1ccccc1	-1.2%	9%	-7%	.
N#CCc1ccc(C(=O)c2ccccc2)s1	2.8%	-5%	-30%	-6
Cc1ccc(SCC(=O)OCC(=O)N(CC(C)C)c2c(N)n(Cc3ccccc3)c(=O)[nH]c2=O)c(C)c1	-2.5%	-2%	.	.
O=C1N=C(N2CCN(c3ccccc3)CC2)SC1Cc1ccccc1 (stereo not drawn)	8.3%	19%	-19%	1
COc1ccc(C)cc1S(=O)(=O)N1CCN(c2ccccc2)CC1	-4.0%	-1%	-4%	.
Cc1ccc2nsnc2c1S(=O)(=O)NC1CC1	-0.7%	5%	-12%	1
CCOc1ccc(C(C)C)cc1S(=O)(=O)n1ccnc1C	0.0%	0%	-3%	1
COc1ccccc1C(=O)NCC(=O)NNC(=O)c1cccs1	0.9%	-1%	.	.
CC(C)(C)c1ccc(C(=O)Nc2ccc(C(=O)N3CCOCC3)cc2)cc1	-4.8%	-18%	9%	.
COc1cccc(NC(=O)/C=C/c2ccccc2[N+](=O)[O-])c1	3.8%	-17%	-58%	3
Cc1cccc2c1CCCC2=O	2.5%	3%	.	.
CC(C)(C)CC(C)(C)SSc1n[nH]c(=S)s1	0.2%	8%	.	.
Cc1cccc(NC(=O)CN(C)C(=O)/C=C/c2ccccc2)c1C	2.7%	2%	.	.
Cc1ccc(CC(=O)NCCc2ccc(S(N)(=O)=O)cc2)cc1	1.0%	-10%	-5%	.
NC(=O)C1(N2CCCCC2)CCN(C(=S)Nc2ccc(Cl)cc2)CC1	3.8%	-6%	-2%	-9
COC(=O)C1=C(C)N(Cc2ccccc2)C(=O)N[C@H]1c1cccc(F)c1	-5.4%	-4%	.	-4
O=C(/C=C/Nc1ccc([N+](=O)[O-])cc1Br)c1cccc2ccccc12	?	-10%	-41%	-8
CC1(C)CC(=O)C2=C(C1)NC(SCC(=O)Nc1ccccc1)=C(C#N)C21CCCCC1	1.4%	-15%	-2%	-2
Cc1ccc(-c2csc3nc(C)n(-n4cccc4)c(=O)c23)o1	6.6%	11%	-4%	-2
O=S(=O)(NCCC1=CCCCC1)c1cccc2nsnc12	4.1%	3%	-3%	11
CCc1ccc(-c2cc(C(=O)O)c3ccccc3n2)s1	0.4%	-11%	4%	.
O=C(O)c1ccc(S(=O)(=O)NCc2ccc3c(c2)OCO3)cc1	-0.5%	6%	0%	.
Cc1ccc2[nH]c(=O)c(-c3noc(C(C)C)n3)cc2c1	-6.6%	-11%	-21%	4
Cc1c(Oc2ccc(C(F)(F)F)cc2[N+](=O)[O-])ccc2c3c(c(=O)oc12)CCC3	?	-11%	-10%	7
O=C(NCc1ccc(Cl)s1)c1cc(COc2c(F)cccc2F)on1	0.0%	7%	-9%	-28
CCN(CC)S(=O)(=O)c1ccc2[nH]cc(C(=O)NCCC3=CCCCC3)c(=O)c2c1	1.7%	9%	11%	-15
CSc1nc(NC(C)=O)nc(C)c1Cl	6.3%	-3%	-2%	3
COC(=O)CC1C(=O)NCCN1C(=O)CSc1nc2ccc([N+](=O)[O-])cc2s1 (stereo not drawn)	-2.3%	2%	16%	3

Filtered by structure, those above with a Cl atom
SMILES	Rango-impB inh	Rango release inh	miR-21 reporter	GLA inh pH 4.5
O=C(NC1CCN(Cc2ccccc2Cl)CC1)c1ccccc1	-1.2%	9%	-7%	.
NC(=O)C1(N2CCCCC2)CCN(C(=S)Nc2ccc(Cl)cc2)CC1	3.8%	-6%	-2%	-9
O=C(NCc1ccc(Cl)s1)c1cc(COc2c(F)cccc2F)on1	0.0%	7%	-9%	-28
CSc1nc(NC(C)=O)nc(C)c1Cl	6.3%	-3%	-2%	3

Returning to the listing; the 4 compounds before the break are reprinted first.
SMILES	Rango-impB inh	Rango release inh	miR-21 reporter	GLA inh pH 4.5
O=C(NCc1ccc(Cl)s1)c1cc(COc2c(F)cccc2F)on1	0.0%	7%	-9%	-28
CCN(CC)S(=O)(=O)c1ccc2[nH]cc(C(=O)NCCC3=CCCCC3)c(=O)c2c1	1.7%	9%	11%	-15
CSc1nc(NC(C)=O)nc(C)c1Cl	6.3%	-3%	-2%	3
COC(=O)CC1C(=O)NCCN1C(=O)CSc1nc2ccc([N+](=O)[O-])cc2s1 (stereo not drawn)	-2.3%	2%	16%	3
CC1(C)CC(=O)C2=C(C1)N(c1ccccc1)C(=O)C(C(=O)OCc1ccccc1)C2 (stereo not drawn)	-1.7%	12%	.	.
CC(C)C(NC(=O)c1ccccc1F)C(=O)NCC(c1ccco1)N1CCCCC1 (stereo not drawn)	-0.5%	0%	.	.
CCCCNc1c(N)n(CC(C)C)c(=O)[nH]c1=O	?	?	1%	9
COC(=O)c1cccc(-n2cnnn2)c1	-4.0%	0%	0%	2
COC(=O)n1c(=O)oc2cc(S(=O)(=O)N3CCCCC3)ccc21	2.2%	-7%	0%	3
O=c1c2cc(Cl)ccc2[nH]c(=S)n1Cc1cccs1	-0.4%	-3%	0%	-6
CCC(=O)N1CCN(c2ccc(NC(=O)c3ccco3)cc2)CC1	2.0%	8%	-33%	-2
COc1ccc(C(O)(C(C)C)C(CN2CCOCC2)c2ccccc2)cc1 (stereo not drawn)	0.9%	7%	16%	.
CCN1CCN(c2nc(-c3ccccn3)nc3ccccc23)CC1	1.4%	-6%	?	2
COC(=O)Nc1ccc(OCc2ccccc2)cc1	0.7%	0%	-67%	0
Cc1cc(Cl)c(S(=O)(=O)NCC2CCCO2)cc1OCC(N)=O (stereo not drawn)	4.0%	-6%	-5%	-1
COc1ccc(CS(=O)(=O)CC(C)(O)c2ccc(Cl)cc2)cc1 (stereo not drawn)	-2.0%	-5%	-3%	.
O=C1C(=O)N(Cc2ccncc2)C(c2ccccc2F)/C1=C(\O)c1ccc2c(c1)OCCO2 (stereo not drawn)	-2.4%	8%	-8%	.
Cc1noc(C)c1C(=O)NNc1cc(Cl)ccc1Cl	0.4%	9%	-19%	4
c1ccc(C2CC(c3ccccc3)C(c3ccccc3)N2)cc1 (stereo not drawn)	0.3%	9%	0%	.
COc1ccc2c(c1)CCc1cc(C(=O)O)sc1-2	?	1%	-12%	?
Cc1cc(N2CCN(c3ccccn3)CC2)n2c(nc3ccccc32)c1C#N	-2.4%	-20%	-3%	2
O=C(Nc1ccccc1N1CCOCC1)c1ccc2c(c1)OCO2	0.1%	2%	-4%	-1
CCOc1ccc(S(=O)(=O)NC(Cc2cnc[nH]2)C(=O)O)cc1 (stereo not drawn)	0.0%	-1%	2%	-4
Cc1cc(=O)[nH]c(N/N=C/c2ccccn2)n1	-2.0%	5%	10%	2
CCc1ccc2oc(C(=O)Nc3nonc3CC)c(C)c2c1	-3.6%	4%	-64%&-67%	.
CC(C)C(=O)c1cn(CC(=O)NCc2ccco2)c2ccccc12	-0.4%	22%	-38%	-10
O=C(CNC(=S)N(Cc1ccccc1)Cc1cccnc1)NCCc1ccccc1	-0.3%	-8%	-6%	2
COCCn1c(COc2cccc(OC)c2)nnc1SCC(=O)NC1CCCC1	-3.3%	4%	-1%	.
CC(=O)c1c(C)[nH]c(C(=O)CN2C(=O)NC(C)(C)C2=O)c1C	?	0%	.	.
CSc1ccccc1NC(=O)COc1ccc(S(=O)(=O)N2CCCC2)cc1	0.5%	10%	-7%	1
CCSc1nnc2c(n1)OC=Nc1ccc(Br)cc1-2	-1.5%	11%	-3%	4
CCCn1c(SCC(=O)Nc2ccc(OCC)cc2)nnc1C(C)C	-0.2%	1%	1%	1
Cc1ccc(/C=C2\SC(=S)N(CCCC(=O)Nc3cccnc3)C2=O)cc1	-2.3%	-3%	27%	.
CC(/C=N/NC(=O)c1cc(-c2ccc(C)s2)[nH]n1)=C\c1ccccc1	4.9%	17%	17%	1
Cc1ccc(C(=O)N(CC(=O)NC2CCCC2)Cc2cccs2)s1	4.7%	21%	0%	-1
CC(=O)N1c2ccc(S(=O)(=O)N3CCCC3C(=O)NCc3ccccc3Cl)cc2CC1C (stereo not drawn)	-1.9%	4%	-2%	.
CCc1ccccc1NC(=O)c1cc(-c2cccc(O)c2)on1	-3.6%	-7%	-53%	4
Cc1cc(C)c2c(c1)[C@@H]1C=CC[C@@H]1[C@H](c1ccc(S(=O)(=O)N3CCOCC3)cc1)N2	?	-21%	4%	-8
O=C(Nc1ccncc1)c1cc(-c2cccc(Br)c2)nc2ccccc12	2.0%	18%	.	.
Cc1ccccc1CN1CCN(S(C)(=O)=O)CC1	?	-4%	-2%	4
CCN1C(=O)/C(=C/c2ccc(C)o2)N(C)C1=S	?	-13%	0%	-15
Cc1ccc(S(=O)(=O)Oc2ccc(C(c3c(C)[nH][nH]c3=O)c3c(C)[nH][nH]c3=O)cc2)cc1	6.1%	2%	0%	0
COc1ccccc1C(=O)NCC(=O)OCC(=O)c1cccc2ccccc12	6.0%	-2%	.	.
Cc1ccc2c(c1)NC(=O)C(CC(=O)Nc1ccc(Br)c(C)c1)O2 (stereo not drawn)	-2.4%	-15%	0%	.
CCCCn1c(N)c(N(CCOC)C(=O)c2ccc3c(c2)C(=O)N(c2cc(C)ccc2C)C3=O)c(=O)[nH]c1=O	0.0%	-4%	-5%	.
COc1ccc2nc3ccccc3nc2c1NC(=O)c1ccc(Cl)cc1Cl	?	?	-4%	-8
CS(=O)(=O)N(CC(=O)NN=C1CCCCCC1)c1ccc(Oc2ccccc2)cc1	1.6%	?	-2%	-13
Cc1cc(N2CCCCC2)c(F)cc1[N+](=O)[O-]	-3.4%	-4%	-2%	5
COCCN(C(=O)CSc1nnc(-c2ccncc2)n1C)c1c(N)n(CC(C)C)c(=O)[nH]c1=O	3.1%	2%	.	.
COC(=O)C(C)Sc1n[nH]c(=S)s1 (stereo not drawn)	-1.2%	-7%	-1%	4
Cc1ccc(CNC(=O)CSc2nnc3n2CCCCC3)cc1	-0.6%	1%	.	.
COc1ccc(C(=O)Oc2cccnc2)cc1	5.7%	13%	-1%	0
COc1cc(NC(=O)c2csc(-c3ccncc3)n2)cc(C(=O)Nc2cccc(C(F)(F)F)c2)c1	2.6%	9%	?	-12
CC(C)N1CC(C(=O)Nc2ccc(C#N)cc2)CC1=O (stereo not drawn)	-0.1%	14%	0%	.
Cc1nc(NC(C)C)c2oc3ccccc3c2n1	-0.4%	0%	7%	-7
COC(=O)c1cn(C(=O)c2cc(OC)c(OC)c(OC)c2)c2ccccc12	1.3%	40%	1%	.
CCN(CC)c1ccc(NC(=O)c2ccc3c(c2)c(C)c(C)n3C)cc1	0.0%	15%	14%	-10
COc1ccc(Br)c2oc(SC)cc(=O)c12	?	-6%	-31%	0&16

Screening results (PubChem)
